Screening data deposited in PubChem by several laboratories.
HNF4A DNA FP: change in binding of human HNF4A to DNA, primary screen, biochemical, fluorescence polarization, FITC-DNA. activity change, % at 10 µM. AID 1224865, 2016. 360,000 tested, 0.3% active. 1 h. Hepatocyte nuclear factor 4-alpha (Homo sapiens), P41235; in the data active = activity change above about 30%, passing the limit was not always enough;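 also: controls were the assay level and a saturating level of protein; the project sought stronger binding though the title names inhibitors; some compounds called inactive have numbers as strong as hits; positive values seem to mean higher polarization but the record does not say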
UCH37 DUB inh: inhibitors of human UCH37 deubiquitinase, primary screen, biochemical, Ub-AMC cleavage, fluorescence. Ubiquitin carboxyl-terminal hydrolase isozyme L5 (Homo sapiens), Q9Y5K5. purified proteasome/UCH37. inhibition, % (test concentration not listed). 330,000 tested, 0.33% active. AID 588478, 2011;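 active = mean of two replicates above 20%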;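 also: 0% = compound-free wells with enzyme and 100% = wells lacking proteasome; stock transfer was 100 nL into about 20 µL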
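assay system = human UCH37 enzyme supplied as purified proteasome complex | amount = proteasome at 0.15 nM in the dispensed enzyme solution | schedule = 30 min compound-proteasome preincubation then 25 min substrate reaction, room temperature | measured by = fluorescence, ex 355 nm, em 460 nm | benchmarks = no-proteasome wells (full inhibition) and compound-free wells (no inhibition)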
ALR inh: inhibitors of human ALR sulfhydryl oxidase, primary screen, biochemical, H2O2 detection, HRP-luminol luminescence, single point; inhibition, % (no concentration beside the values); 290,000 tested, 3.8% active; purified ALR, DTT oxidation;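 active = mean and each replicate at 75% or more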;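 also: stock transfer was 7.5 nL into about 7.5 µL; 0% = neutral wells and 100% = wells with inactivated enzyme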
Target sequence (P55789 whole entry, looked up): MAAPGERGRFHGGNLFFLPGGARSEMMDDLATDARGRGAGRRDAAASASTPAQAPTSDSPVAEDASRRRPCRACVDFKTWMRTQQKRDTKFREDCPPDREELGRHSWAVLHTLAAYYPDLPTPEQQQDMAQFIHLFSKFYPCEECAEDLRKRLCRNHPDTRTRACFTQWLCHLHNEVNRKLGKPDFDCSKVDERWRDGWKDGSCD
Ecoli rRNA inh: reduced GFP signal of wild-type E. coli, primary screen, bacterial rRNA inhibitor project, GFP/RFP fluorescence, OD600, single point; GFP signal change (wild-type ribosome), % (concentration not given with the values); 350,000 tested, 1.6% active; E. coli WT GFP vs humanized-ribosome RFP mutants, 24 h; active compounds read low; DMSO median 0, no signal -100;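 active = significant combined selectivity score with lowered wild-type GFP, culture density cut under 30%, mutant RFP and density less affected; inactive = any of these conditions unmet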; also: one replicate is shown; some compounds called inactive have numbers as strong as hits
FGF22 binding: binders of human FGF22 protein, primary screen, FGF22 synaptogenesis inhibitor project, biophysical, thermal shift, single point; recombinant FGF22 thermal shift, SYPRO orange fluorescence; percent of sucrose octasulfate shift, DMSO zero; calls only at 9.99 µM; 340,000 tested, 1.5% active; AID 651658, 2012;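 active = melting point raised past a set limit in the mean and every replicate; three in four hits are not shown here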
Target sequence (Q9HCT0 whole entry, looked up): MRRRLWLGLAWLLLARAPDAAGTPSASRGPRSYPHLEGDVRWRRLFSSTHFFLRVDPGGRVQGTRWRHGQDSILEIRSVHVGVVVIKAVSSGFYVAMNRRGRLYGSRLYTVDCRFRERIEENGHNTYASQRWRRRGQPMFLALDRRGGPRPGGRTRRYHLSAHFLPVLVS
E coli growth: E. coli growth inhibition, primary screen, OD600; 330,000 tested, 0.21% active; AID 1053175, 2014; Escherichia coli growth, 23 h; active compounds read low; OD600 absorbance (no concentration beside the values);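 active = OD600 absorbance below the run mean of sample wells minus 3.6 SD, in any replicate, cut at about 0.56 in these data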;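 also: stock transfer was 300 nL into about 60 µL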
B2AR ag: beta2AR agonists driving receptor internalization, primary screen, cell-based, FAP fluorogen, flow cytometry; Beta-2 adrenergic receptor (Homo sapiens), P07550; Am2.2-beta2AR cells; reference of the scale not given here; response, % (concentration not given with the values); 340,000 tested, 0.43% active;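 active = response above a set limit, near 3 SD of response in nonfluorescent compounds, cut at about 42% in these data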;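 also: stock transfer was 100 nL into about 11 µL; a reference agonist was the positive control; negative values mostly stem from fluorescent compounds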
Target sequence (P07550 whole entry, looked up): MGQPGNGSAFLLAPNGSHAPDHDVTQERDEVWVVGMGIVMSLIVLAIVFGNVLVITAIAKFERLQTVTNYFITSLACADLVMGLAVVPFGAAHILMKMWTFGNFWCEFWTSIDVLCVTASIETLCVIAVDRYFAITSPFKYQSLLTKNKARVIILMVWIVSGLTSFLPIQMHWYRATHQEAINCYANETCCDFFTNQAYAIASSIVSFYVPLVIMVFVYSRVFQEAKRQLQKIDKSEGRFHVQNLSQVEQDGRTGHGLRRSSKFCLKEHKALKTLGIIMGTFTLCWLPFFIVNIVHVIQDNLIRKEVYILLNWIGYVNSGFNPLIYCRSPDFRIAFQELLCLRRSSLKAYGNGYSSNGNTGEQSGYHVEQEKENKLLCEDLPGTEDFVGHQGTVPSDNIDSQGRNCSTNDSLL
Ecoli rRNA inh OD600: second read-out of Ecoli rRNA inh, no call of its own (marks repeat the call); OD600 change, %; measured here: OD600 growth;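 optical density of the mix in the first replicate; 0 = DMSO median and -100 = no signal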
Ecoli rRNA inh RFP: also measured in Ecoli rRNA inh; calls as there; RFP signal change, %; measured here: RFP humanized mutant strains;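 first replicate; 0 = DMSO median and -100 = no signal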
Active calls of the source: *. Some of the compounds tested (hit frequency here may not be typical).

`COc1ccc(CN2C(=O)CSCC2(C)C(=O)NCc2ccccc2)cc1OC` (stereo not drawn) gave HNF4A DNA FP 0.8, Ecoli rRNA inh 15, FGF22 binding inactive, Ecoli rRNA inh OD600 7 and Ecoli rRNA inh RFP 1.5.
Screening COc1ccc(CCNC(=O)Cn2nc(C)n3nc(-c4ccccc4)cc3c2=O)cc1OC returned HNF4A DNA FP 0.7, UCH37 DUB inh -1.2, ALR inh -5, Ecoli rRNA inh 1, FGF22 binding inactive, E coli growth 0.71, B2AR ag 3, Ecoli rRNA inh OD600 -1 and Ecoli rRNA inh RFP -0.2.
Screening O=C(CCN1C(=O)[C@@H]2Cc3ccccc3CN2C1=O)NCc1ccc(Cl)cc1 returned HNF4A DNA FP -1.8, UCH37 DUB inh -2.0, ALR inh 2, Ecoli rRNA inh -4, FGF22 binding inactive, E coli growth 0.66, B2AR ag -6, Ecoli rRNA inh OD600 -10 and Ecoli rRNA inh RFP 3.9.
Screening Cc1cc(F)ccc1NS(=O)(=O)c1c(C(=O)N2CCOCC2)c(C)n(C)c1C returned HNF4A DNA FP 1.7, UCH37 DUB inh 1.7, ALR inh -5, Ecoli rRNA inh 7, FGF22 binding inactive, E coli growth 0.66, B2AR ag 1, Ecoli rRNA inh OD600 9 and Ecoli rRNA inh RFP 4.5.
O=c1[nH]c2ccc(NC(=S)NCc3ccccc3)cc2[nH]1 was read as HNF4A DNA FP 0.3, UCH37 DUB inh 3.4, ALR inh 14, Ecoli rRNA inh 11, FGF22 binding inactive, E coli growth 0.64, B2AR ag -3, Ecoli rRNA inh OD600 -2 and Ecoli rRNA inh RFP -4.1.
CCCn1c(=O)[nH]c(=O)c2c1nc(-c1cc([N+](=O)[O-])ccc1Cl)n2CCOC was read as HNF4A DNA FP -1.1, UCH37 DUB inh -0.8, ALR inh -9, Ecoli rRNA inh -10, FGF22 binding inactive, E coli growth 0.67, B2AR ag -3, Ecoli rRNA inh OD600 4 and Ecoli rRNA inh RFP -3.1.
Screening COc1ccc(CC(=O)NCCS(=O)(=O)N2CCN(c3ccccc3OC)CC2)cc1 returned HNF4A DNA FP -4.0, UCH37 DUB inh 2.6, ALR inh 16, Ecoli rRNA inh -6, FGF22 binding inactive, E coli growth 0.69, B2AR ag 0, Ecoli rRNA inh OD600 -10 and Ecoli rRNA inh RFP -0.9.
Screening CCOC(=O)c1cc(NC(=O)Nc2ccc(Br)cc2)c(C)nc1C returned HNF4A DNA FP 0.7, UCH37 DUB inh 3.4, ALR inh -2, Ecoli rRNA inh -16, FGF22 binding inactive, E coli growth 0.67, B2AR ag 3, Ecoli rRNA inh OD600 -13 and Ecoli rRNA inh RFP -1.5.
`COc1ccc(-c2cc3nc(C)c(CCC(=O)NC(C)CCc4ccco4)c(C)n3n2)c(OC)c1` (stereo not drawn) gave HNF4A DNA FP 0.8, UCH37 DUB inh -36, ALR inh 2, E coli growth 0.76 and B2AR ag -8.
`CCOC(=O)c1ccc(CNC(=O)C2CCC(=O)N(Cc3cccc(OC)c3)C2)o1` (stereo not drawn) gave HNF4A DNA FP -0.4, UCH37 DUB inh 3.4, ALR inh 2, FGF22 binding inactive, E coli growth 0.72 and B2AR ag -9.
Cc1ccc(-n2c(=O)c3c(n4cnnc24)-c2ccccc2CC32CCCCC2)cc1 was read as HNF4A DNA FP 0.0, UCH37 DUB inh 3.0, ALR inh -1, E coli growth 0.7 and B2AR ag -6.
CS(=O)(=O)N(CC(=O)N1CCCC1)c1cc(Cl)ccc1Cl was read as HNF4A DNA FP 1.0, UCH37 DUB inh 1.0, ALR inh 0, Ecoli rRNA inh 4, FGF22 binding inactive, E coli growth 0.65, B2AR ag 3, Ecoli rRNA inh OD600 3 and Ecoli rRNA inh RFP 0.8.
`O=c1cc(CN2CCN(c3ccccc3F)CC2)c2cc(O)c(-c3ccccc3)cc2o1` gave HNF4A DNA FP 6.1, UCH37 DUB inh 5.4, ALR inh 3, Ecoli rRNA inh -13, FGF22 binding inactive, E coli growth 0.73, B2AR ag -3, Ecoli rRNA inh OD600 -3 and Ecoli rRNA inh RFP -7.2.
`COc1cccc(Cn2cc(/C=N/NC(=O)c3cc(O)cc(O)c3)c3ccccc32)c1` gave HNF4A DNA FP -2.1, ALR inh 18, Ecoli rRNA inh -27*, FGF22 binding inactive, B2AR ag 4, Ecoli rRNA inh OD600 -18* and Ecoli rRNA inh RFP 2.5*.
`Cn1c(SCc2nc3ccccc3c(=O)[nH]2)nnc1-c1ccco1` gave HNF4A DNA FP -0.6, UCH37 DUB inh 3.9, ALR inh 0, E coli growth 0.7 and B2AR ag -13.
For O=C(O)c1ccccc1C(=O)NCCc1c(C(=O)O)[nH]c2ccc(Cl)cc12 the results were HNF4A DNA FP 0.4, UCH37 DUB inh 2.5, Ecoli rRNA inh -6, FGF22 binding inactive, E coli growth 0.7, B2AR ag 11, Ecoli rRNA inh OD600 0 and Ecoli rRNA inh RFP 3.4.
For C#CCn1c(=NC(=O)c2cc(Cl)sc2Cl)sc2cc(S(N)(=O)=O)ccc21 the results were HNF4A DNA FP -4.0, UCH37 DUB inh -21, E coli growth 0.69 and B2AR ag 35.
For C/C(O)=C(\N=Nc1cc(C)ccc1O)C(N)=O the results were HNF4A DNA FP 1.8, UCH37 DUB inh 7.6, ALR inh 2, Ecoli rRNA inh -16, FGF22 binding inactive, E coli growth 0.63, B2AR ag 10, Ecoli rRNA inh OD600 -11 and Ecoli rRNA inh RFP 2.4.
For COc1ccc(NCC(=O)N/N=C2\CCCC(C)C2)cc1 (stereo not drawn) the results were HNF4A DNA FP 4.0, Ecoli rRNA inh -1, FGF22 binding inactive, B2AR ag -12, Ecoli rRNA inh OD600 6 and Ecoli rRNA inh RFP -3.5.
For COc1ccc(N2CCN(C(c3ccccc3OC)c3nnnn3C3CCCC3)CC2)cc1 (stereo not drawn) the results were HNF4A DNA FP -3.2, UCH37 DUB inh 2.1, E coli growth 0.72 and B2AR ag -1.
Screening Cc1c(C(=O)OC2CCC(C)CC2)[nH]c2c1C(=O)CCC2 (stereo not drawn) returned HNF4A DNA FP 1.5, UCH37 DUB inh -0.3, ALR inh 19, Ecoli rRNA inh 10, FGF22 binding inactive, E coli growth 0.76, B2AR ag -5, Ecoli rRNA inh OD600 -20 and Ecoli rRNA inh RFP -3.4.
Screening CC(C)NC(=O)CN1CCC(c2nc3ccccc3[nH]2)CC1 returned HNF4A DNA FP 0.7, UCH37 DUB inh 4.1, ALR inh -5, Ecoli rRNA inh 13, FGF22 binding inactive, E coli growth 0.69, B2AR ag -3, Ecoli rRNA inh OD600 15 and Ecoli rRNA inh RFP 2.1.
For CCC(C)c1ccc(NC(=O)COc2c(F)c(F)c(C(F)(F)F)c(F)c2F)cc1 (stereo not drawn) the results were HNF4A DNA FP -0.5, UCH37 DUB inh 3.1, ALR inh -5, E coli growth 0.69 and B2AR ag 2.
Screening CC1(C)NC(=O)N(CC(=O)N2CCN(c3cccc(Cl)c3)CC2)C1=O returned HNF4A DNA FP 0.1, UCH37 DUB inh 0.7, ALR inh -1, E coli growth 0.68 and B2AR ag 1.
For CCC(Cc1ccccc1)NCc1c(C(=O)O)c(C)n(Cc2ccccc2)c1C (stereo not drawn) the results were HNF4A DNA FP 5.5, UCH37 DUB inh -1.7, ALR inh -6, Ecoli rRNA inh -1, FGF22 binding inactive, E coli growth 0.65, B2AR ag -2, Ecoli rRNA inh OD600 -6 and Ecoli rRNA inh RFP 9.0.
For Cc1ccnc(SCc2cc(=O)c(OC(=O)c3ccccc3)co2)n1 the results were HNF4A DNA FP 0.6, UCH37 DUB inh 1.3, ALR inh 30, Ecoli rRNA inh 0, FGF22 binding inactive, E coli growth 0.66, B2AR ag 2, Ecoli rRNA inh OD600 -1 and Ecoli rRNA inh RFP -6.5.
CCCCn1c(N)c(N(CCC(C)C)C(=O)CN2C(=O)C3CCCCC3C2=O)c(=O)[nH]c1=O (stereo not drawn) was read as HNF4A DNA FP -0.4, UCH37 DUB inh 4.4, ALR inh 4, Ecoli rRNA inh 10, FGF22 binding inactive, E coli growth 0.7, B2AR ag -8, Ecoli rRNA inh OD600 14 and Ecoli rRNA inh RFP 2.7.
Screening Cc1cc(=O)nc2c3ccccc3n(CC(=O)NC(C)c3ccc4c(c3)OCCO4)n12 (stereo not drawn) returned HNF4A DNA FP 2.5, UCH37 DUB inh 3.1, ALR inh 0, Ecoli rRNA inh 0, FGF22 binding inactive, E coli growth 0.65, B2AR ag 2, Ecoli rRNA inh OD600 -3 and Ecoli rRNA inh RFP -0.9.
`COc1ccccc1N(CC(=O)NC1CCCC1)S(=O)(=O)c1cccc(C(F)(F)F)c1` gave HNF4A DNA FP -0.1, UCH37 DUB inh 3.3, Ecoli rRNA inh 1, FGF22 binding inactive, E coli growth 0.66, B2AR ag -12, Ecoli rRNA inh OD600 4 and Ecoli rRNA inh RFP 0.7.
`CCCC(=O)N1CCN(c2ccc(NC(=S)NC(=O)CC)cc2)CC1` gave HNF4A DNA FP -0.2, UCH37 DUB inh 2.7, ALR inh 37, E coli growth 0.72 and B2AR ag -3.
For COc1cc(OC)c(OC)cc1CN1CCCC(C(=O)c2ccc3c(c2)OCO3)C1 (stereo not drawn) the results were HNF4A DNA FP 3.2, UCH37 DUB inh -4.8, ALR inh -19, Ecoli rRNA inh 13, FGF22 binding inactive, E coli growth 0.74, B2AR ag 0, Ecoli rRNA inh OD600 0 and Ecoli rRNA inh RFP 0.6.
`O=S(=O)(Nc1ccncc1)c1cc(Cl)ccc1Cl` gave HNF4A DNA FP 2.0, UCH37 DUB inh -0.8, ALR inh -16, Ecoli rRNA inh 13, FGF22 binding inactive, E coli growth 0.7, B2AR ag 6, Ecoli rRNA inh OD600 11 and Ecoli rRNA inh RFP 2.2.

A draw from above in order of number of heavy atoms, high to low.
Screening Cc1cc(=O)nc2c3ccccc3n(CC(=O)NC(C)c3ccc4c(c3)OCCO4)n12 (stereo not drawn) returned HNF4A DNA FP 2.5, UCH37 DUB inh 3.1, ALR inh 0, Ecoli rRNA inh 0, FGF22 binding inactive, E coli growth 0.65, B2AR ag 2, Ecoli rRNA inh OD600 -3 and Ecoli rRNA inh RFP -0.9.
For COc1cc(OC)c(OC)cc1CN1CCCC(C(=O)c2ccc3c(c2)OCO3)C1 (stereo not drawn) the results were HNF4A DNA FP 3.2, UCH37 DUB inh -4.8, ALR inh -19, Ecoli rRNA inh 13, FGF22 binding inactive, E coli growth 0.74, B2AR ag 0, Ecoli rRNA inh OD600 0 and Ecoli rRNA inh RFP 0.6.
For O=C(O)c1ccccc1C(=O)NCCc1c(C(=O)O)[nH]c2ccc(Cl)cc12 the results were HNF4A DNA FP 0.4, UCH37 DUB inh 2.5, Ecoli rRNA inh -6, FGF22 binding inactive, E coli growth 0.7, B2AR ag 11, Ecoli rRNA inh OD600 0 and Ecoli rRNA inh RFP 3.4.
`CCCC(=O)N1CCN(c2ccc(NC(=S)NC(=O)CC)cc2)CC1` gave HNF4A DNA FP -0.2, UCH37 DUB inh 2.7, ALR inh 37, E coli growth 0.72 and B2AR ag -3.
